Screens from PubChem BioAssay.
A488 fluor: compound fluoresces in the A488 spectral region; max dye equivalency, M; actives 0.1% (n = 59,000); compound autofluorescence, A488 spectral region, dye equivalency; active compounds read high; active = above 10 nM dye equivalent; inconclusive = 1 to 10 nM; inactive = 1 nM or less; about half of its hits are not listed in these tables;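 further: highest value over a series up to 38 µM; compound alone in buffer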
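Compounds pin-transferred into 100 mM Tris buffer, pH 8.0, incubated 15 min at room temperature, then imaged with 480 nm excitation/540 nm emission filters. Fluorescence converted to Alexa 488 dye-equivalent concentration via an on-plate six-point A488 standard curve.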
TSHR agonist: activates the human thyroid stimulating hormone receptor. Potency, µM (top dose mostly 57.1 µM), for the others: top-dose activation, hits mostly activators. HEK293-CNG-TSHR cells (CNG channel as cAMP sensor), membrane potential dye, cAMP. AID 926. actives 0.48% (n = 73,000). P16473; active = well fitted activation curve of enough size with the parental cells flat; inconclusive = any curve in the parental cells; inactive = parental cells flat and receptor cells flat or falling; further: potency means the concentration at half of the fitted maximal effect; % of control where 0% means no effect; weak receptor curves with flat parental cells got no call and are not listed
Target sequence (P16473 whole entry, looked up): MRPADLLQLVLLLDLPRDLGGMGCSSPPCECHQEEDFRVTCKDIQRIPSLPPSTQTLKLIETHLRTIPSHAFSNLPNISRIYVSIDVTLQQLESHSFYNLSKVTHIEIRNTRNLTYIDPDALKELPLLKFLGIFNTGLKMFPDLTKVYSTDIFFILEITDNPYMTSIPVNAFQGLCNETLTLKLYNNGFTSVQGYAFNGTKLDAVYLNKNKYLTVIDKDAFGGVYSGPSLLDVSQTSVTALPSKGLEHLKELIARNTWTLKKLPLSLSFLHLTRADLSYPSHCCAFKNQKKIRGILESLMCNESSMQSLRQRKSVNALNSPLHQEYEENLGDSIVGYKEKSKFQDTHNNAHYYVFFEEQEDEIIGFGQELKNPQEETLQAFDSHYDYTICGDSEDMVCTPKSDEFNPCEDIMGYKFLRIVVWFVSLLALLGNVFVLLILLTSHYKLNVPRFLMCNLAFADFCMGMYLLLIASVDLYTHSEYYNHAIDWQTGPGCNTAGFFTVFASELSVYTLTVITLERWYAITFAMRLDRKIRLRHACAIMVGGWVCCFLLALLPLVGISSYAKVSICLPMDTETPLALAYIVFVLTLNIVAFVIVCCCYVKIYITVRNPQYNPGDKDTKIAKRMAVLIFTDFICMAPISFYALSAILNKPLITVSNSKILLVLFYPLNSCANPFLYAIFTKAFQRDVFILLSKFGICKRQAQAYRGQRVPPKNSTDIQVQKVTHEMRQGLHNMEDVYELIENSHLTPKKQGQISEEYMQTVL
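cAMP rise detected as CNG-channel membrane depolarization by fluorescent dye (emission 590 nm), 30 min after compound, following 60 min dye loading containing 100 uM RO 20-1724 at room temperature. Cells: TSHR/CNG HEK 293, with parental CNG HEK 293 as control.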
Resorufin fluor: compound fluoresces in the resorufin spectral region | Compound fluorescence, resorufin region 547/598 nm, buffer; active compounds read high | actives 0.04% (n = 59,000) | AID 588 | max dye-equivalent concentration, M; active = above 10 nM dye equivalent; inconclusive = 1 to 10 nM; inactive = 1 nM or less; a few of its hits are not listed in these tables; further: highest value over a series up to 38 µM
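Compounds in 100 mM Tris, pH 8.0, incubated 15 min at room temperature, then fluorescence read at 547 nm excitation/598 nm emission. Signal converted to dye-equivalent concentration via an on-plate six-point resorufin standard curve, per compound concentration.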
AID923: qHTS Assay for Allosteric/Competitive Inhibitors of Caspase-1: Spectroscopic Profiling in AFC Spectral Region; compound fluorescence, AFC spectral region (405/520 nm); almost no hit is shown here; Potency, µM (titrated, usually from 57.5 µM), without a hit: at the highest dose fluorescence increase, most hits filed as activators; actives 1.1% (n = 75,000); active means well fitted activation curve with a large enough effect; inconclusive means small, poorly fitted or top-dose-only effect;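 further: potency means the concentration at half of the fitted maximal effect; 0% is about no effect; scaled to a free AFC standard on each plate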
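Compound autofluorescence profiled at 405 nm ex/520 nm em during kinetic caspase 1 run (50 nM enzyme, 5 uM Ac-WEHD-AFC, HEPES pH 7.5, 10 mM DTT). Titration up to 57 uM; baseline from regression intercept, normalized to AFC standard curve.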
A647 autofl: A647 region autofluorescence; Compound fluorescence, A647 channel (570/671 nm), Tris buffer; max dye-equivalent concentration, M; 59,000 tested, under 10 active; AID 592; active means above 1 µM dye equivalent; inconclusive means 0.1 to 1 µM; inactive means 0.1 µM or less;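 further: values scaled relative to a standard on each plate; highest value over a series up to 38 µM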
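Fluorescence read (570 nm ex, 671 nm em) after 15 min RT incubation of compounds in 100 mM Tris buffer, pH 8.0; values expressed as dye-equivalent concentration against a six-point A647 standard series on each plate.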
The depositor's hits bear a star; i = inactive; ? = inconclusive; · = not tested or not shown; [ ] = dose if it differs, or a comment.

structure | AID923 | TSHR agonist | Resorufin fluor | A647 autofl | A488 fluor
COc1ccc(-c2nnc(NC(=O)c3ccc(S(=O)(=O)N4COCC4(C)C)cc3)o2)cc1 | -2.2% | 0% | i | 1e-09 | i
CCCCOc1ccc(-c2nnc(-c3ccncc3)o2)cc1 | -2.4% | ? | i | 4.4e-08 | i
CS(=O)(=O)N(CC(=O)NCCSCc1cccc(Cl)c1)c1ccc2c(c1)OCO2 | -2.5% | ? | i | 1e-09 | i
Cc1cc(C2C(C#N)=C(N)SC(N)=C2C#N)c(C)s1 | 4.6% | -3% | i | 1e-09 | i
COc1ccc(S(=O)(=O)N(CC(=O)NCC2CCCO2)c2ccccc2)cc1OC (stereo not given) | 0.3% | 7% | i | 8.9e-09 | i
CCNc1nc(SCC(=O)OC)nc(N2CCOCC2)n1 | 0.1% | 6% | i | 1e-09 | i
O=C(C1CCCN1S(=O)(=O)c1ccc(Cl)c(Cl)c1)N1CCCCC1 (stereo not given) | 0.1% | ? | i | 2.3e-08 | i
CCC(=O)N1CCc2cc(Br)cc(S(=O)(=O)NCCN3CCCCC3CC)c21 (stereo not given) | 0.1% | 8%[11.4 µM] | i | 1e-09 | i
CCOC(=O)C(Cc1ccccc1)NS(=O)(=O)c1ccc(NC(C)=O)cc1 (stereo not given) | 0.2% | ? | i | 6.5e-09 | i
COc1ccc(OC)c(NC(=O)C2CCN(S(=O)(=O)c3c(C)noc3C)CC2)c1 | -0.2% | 6% | i | 1e-09 | i
COCCNC(=O)CSc1nc2cc(OC)c(OC)cc2c(=O)n1Cc1ccco1 | -0.1% | 1% | i | 4e-09 | i
CS(=O)(=O)Nc1ccc(C(=O)Nc2ccccc2C(=O)N2CCCC2)cc1 | 1.1% | 17% | i | 2.1e-08 | i
CCCCCCc1nc2c(=O)[nH]c3ccccc3c2o1 | -0.1% | -3% | i | 1e-09 | i
COc1ccccc1N1CCN(C(=O)c2cc(-c3ccc4c(c3)OCO4)on2)CC1 | 0.5% | 16% | i | 3.7e-08 | i
O=C(Nc1ccc(C(=O)Nc2ccc(C(=O)Nc3ccc(S(=O)(=O)O)c4cc(S(=O)(=O)O)cc(S(=O)(=O)O)c34)cc2)cc1)Nc1ccc(C(=O)Nc2ccc(C(=O)Nc3ccc(S(=O)(=O)O)c4cc(S(=O)(=O)O)cc(S(=O)(=O)O)c34)cc2)cc1 | 2.5% | -14% | · | · | ·
CC(C)(C)C(=O)c1sc(Nc2ccccc2)nc1N | -2.6% | -8% | i | 1.1e-08 | i
O=C(c1ccncc1)N1CCC2(CC1)CN(C(c1ccccc1)c1ccccc1)C2 | -0.3% | 16% | i | 6.8e-09 | i
O=C(Cc1cccs1)NCc1ccccc1 | -0.2% | 2% | i | 5.5e-09 | i
O=C(CN1C(=O)c2ccccc2S1(=O)=O)NC1CCCC1 | -1.7% | 1% | i | 3.8e-09 | i
CCC(=O)Nc1ccc2nc(C)n(CC(=O)Nc3ccccc3)c(=O)c2c1 | 1.4% | 0% | i | 1.8e-09 | i
CCOC(=O)CSc1nnc(-c2cccc(Br)c2)o1 | 1.4% | 6% | · | · | ·
Cn1nnc2cc(C(=O)NC(C)(C)C)ccc21 | 1.0% | 0% | i | 6.1e-08 | i
O=C(c1cccs1)N(CC1CCCO1)c1nc(-c2ccccc2)cs1 (stereo not given) | 0.2% | ? | i | 5e-09 | i
C=CCNc1nnc(SCC(=O)N2CCCCC2)c2ccccc12 | 7.4% | 6% | i | 1.2e-08 | i
CC(C)(C)c1ccc(C(=O)CSc2ncn[nH]2)cc1 | 2.5% | · | i | 1e-09 | i

The list continues:
structure | AID923 | TSHR agonist | Resorufin fluor | A647 autofl | A488 fluor
O=C(c1ccco1)c1cn(CC(=O)N2CCCCC2)c2ccccc12 | 0.4% | ? | i | 1e-09 | i
O=c1c(-c2ccccc2)nc2cnc(Oc3ccccc3)nc2n1C1CC1 | 9.9% | ? | i | 1e-09 | i
Cc1ccc(NC(=O)CS(=O)CC(=O)N(CC(=O)NC2CCCC2)c2cc(C)ccc2C)cc1 (stereo not given) | -0.5% | 8% | i | 7e-08 | i
COc1cccc(-c2nc(C(N)=O)c3[nH]c(=O)n(-c4ccccc4)c3n2)c1OC | -3.1% | -3% | · | · | ·
c1csc(-c2csc3nc(CN4CCOCC4)nc(NCc4ccc5c(c4)OCO5)c23)c1 | 1.6% | ? | i | 3.2e-08 | i
Cc1c(=O)n(OCc2c(F)cccc2F)c2ccccc2[n+]1[O-] | · | · | i | 1e-09 | i
CCCc1cc(=O)oc2cc(OCC(=O)Nc3cc(C)on3)ccc12 | 2.0% | 0% | i | 1e-09 | i
CN1CCc2nc(SCCOc3ccccc3)c(C#N)cc2C1 | -2.7% | ? | i | 1.6e-08 | i
O=c1[nH]nc(Sc2ncnc3sccc23)n1CCc1ccccc1 | -1.2% | ? | i | 1e-09 | i
COc1cc(C2c3c(oc4ccccc4c3=O)C(=O)N2c2ccc(C)cn2)ccc1O (stereo not given) | -0.1% | -26% | · | · | ·
COC(=O)c1ccc(NC(=O)C2CCCN2S(=O)(=O)c2ccc(OC)cc2)cc1 (stereo not given) | 1.9% | · | i | 1e-09 | i
CCc1cc2ccccc2nc1SCC(=O)N1CCN(C(=O)c2ccco2)CC1 | 0.6% | ? | i | 2.4e-09 | i
CCN1CCN(CC(O)COc2ccc(C(C)=O)cc2)CC1 (stereo not given) | -2.2% | -3% | · | · | ·
CC(=O)C1=C(O)C(=O)N(c2ccc(S(N)(=O)=O)cc2)C1c1ccccc1F (stereo not given) | · | · | i | 2e-09 | i
Cc1c(C(=O)Nc2ccncc2)oc2c1C(=O)CC(C)(C)C2 | 0.1% | 12% | i | 2.3e-09 | i
Cc1ccc(S(=O)(=O)NC2=NCN(Cc3cccnc3)CN2)cc1 | -1.1% | 0% | i | 1.7e-08 | i
O=C(Nc1ccc(N2CCCCC2)c(C(=O)O)c1)c1ccco1 | 1.8% | -4% | i | 1e-08 | i
CC(C)(C)OC(=O)N1CCC(C(=O)N2CCCCCC2)CC1 | 2.1% | -5% | · | · | ·
Nc1scc(-c2ccncc2)c1Cl | 0.5% | -13% | i | 1e-09 | i
Cc1nc2cnc(N3CCOCC3)nc2n(C)c1=O | 13% | 6% | i | 3.9e-09 | i
CC(C)/C(=N/[N+](C)(C)C)c1ccccc1 | 1.9%[11.5 µM] | -3%[11.4 µM] | i | 1e-09 | i
COc1ccc(C2CC(c3cccc(C)c3)n3ncnc3N2)cc1 (stereo not given) | -2.7% | 22% | · | · | ·
Brc1c(CSc2nc3ccccc3o2)nc2ncccn12 | -1.2% | 5% | i | 2.5e-08 | i
Cc1ccc2nc(C3CCN(CC(=O)N4CCCCCC4)CC3)[nH]c2c1 | -0.7% | -4% | i | 5.1e-09 | i
CN(c1ccccc1)S(=O)(=O)c1ccc(C(=O)OCC(=O)NCc2ccco2)cc1 | -0.8% | · | i | 7.6e-09 | i

Later entries
structure | AID923 | TSHR agonist | Resorufin fluor | A647 autofl | A488 fluor
CCOc1cc(N2CCOCC2)c(OCC)cc1NC(=O)C(NC(=O)c1ccco1)C(C)C (stereo not given) | 0.8% | -3% | i | 4.4e-09 | i
Cc1ccccc1-n1nc(C(=O)O)c(C)c(C#N)c1=O | -0.7% | 0% | i | 3.2e-08 | i
OC1(c2ccccc2F)CCN(Cc2nnc(-c3ccccc3)o2)CC1 | 1.2% | 2% | i | 2.7e-08 | i
CCCn1nc(C(=O)OCC(=O)c2ccc3c(c2)NC(=O)CO3)c2ccccc2c1=O | -1.4% | 12% | i | 1e-09 | i
Cc1nnc(SCC(=O)Nc2nccs2)s1 | 1.2% | -1% | i | 1e-09 | i
CCN=C1SC(C(N)=O)CC(=O)N1CC (stereo not given) | 1.3% | 0% | i | 3.7e-08 | i
COc1ccc(N(C(=O)c2ccc(Br)o2)C2C=CS(=O)(=O)C2)cc1 (stereo not given) | 5.1% | · | i | 4.4e-09 | i
CC(=O)Nc1ccc(S(=O)(=O)Nc2ccc(N3CCOCC3)cc2)cc1 | 0.0% | -8% | i | 3.1e-08 | i
CCN(CC)c1ccc(NC(=O)CSc2nc3ccccc3c(=O)[nH]2)cc1 | 1.0% | -11% | i | 2.8e-09 | i
O=C1SC(SCc2ccccc2)=N/C1=C\c1ccco1 | 2.0% | ? | i | 3.2e-08 | i
COc1cc2c(C)nc(C)c(C#N)c2cc1OC | 0.1% | 21% | i | 1e-09 | i
Cc1ccc(C)c2[nH]c(=O)c(CCNC(=O)c3ccc(S(=O)(=O)N(C)C)cc3)cc12 | 3.7% | -13% | · | · | ·
CC(CCc1ccccc1)NC(=O)c1cccnc1 (stereo not given) | 1.9% | 9% | i | 3.7e-08 | i
N#Cc1c(/N=C/N2CCOCC2)sc2c1CCCCC2 | 0.6% | -6% | · | · | ·
COc1ccc(OC)c(C2=Nn3c(nnc3-c3cc(OC)c(OC)c(OC)c3)SC2)c1 | 2.1% | 5% | i | 3.2e-08 | i
COc1cccc(OCCN2CCN(c3ncnc4c3cnn4-c3ccccc3)CC2)c1 | · | · | i | 1e-09 | i
CCC1(C)Nc2ccccc2C(=O)N1O (stereo not given) | 1.2% | 6% | i | 1.7e-09 | i
COC(=O)c1cccc(CSc2nnc(-c3ccco3)n2-c2ccccc2)c1 | -0.7% | ? | i | 2.2e-08 | i
O=C(N/N=C1/C[C@@H](O)[C@@H](O)[C@@H]2[C@@H]3C(=O)N(C4CCCCC4)C(=O)[C@H]3CC[C@@H]12)OCc1ccccc1 | -1.8%[11.5 µM] | -3%[11.4 µM] | · | · | ·
CCOC(=O)N1CCC(NS(=O)(=O)c2ccc3c(c2)oc(=O)n3C)CC1 | 0.3% | 2% | i | 4.7e-09 | i
C=CCn1c(Cc2cccs2)nnc1SCC(=O)c1ccc(F)cc1 | 1.2% | 15% | i | 2.3e-08 | i
CCCC[C@@H]1C[C@H]1C(NC(=O)c1cccnc1)c1ccc(Cl)cc1 (stereo not given in full) | -2.2% | ? | · | · | ·
Cc1ccnc(N2CCN(C(=O)CSc3nc4ccccc4nc3N3CCCCC3)CC2)c1 | 7.8% | ? | i | 3.4e-08 | i
N#Cc1c(N)n(C2CCCCC2)c2nc3ccccc3nc12 | 1.7% | 3% | i | 3.9e-08 | i
Cc1ccc(S(=O)(=O)N2CCCN(S(=O)(=O)C3CCS(=O)(=O)C3)CC2)cc1 (stereo not given) | 1.3% | 1% | i | 2.2e-08 | i
N#CC(C(=O)NC1CCCCC1)c1nc2ccccc2nc1N1CCCCC1 (stereo not given) | 7.2% | 5% | i | 2.2e-08 | i
O=C1c2ccccc2C(=O)N1CCCSc1ccccc1 | 1.0%[11.5 µM] | 4%[11.4 µM] | i | 1e-09 | i
O=C(COc1ccc(S(=O)(=O)N2CCCC2)cc1Cl)NCc1ccco1 | -0.2% | -1% | i | 1.1e-09 | i

4 of these compounds in another layout.
molecule: CCCn1nc(C(=O)OCC(=O)c2ccc3c(c2)NC(=O)CO3)c2ccccc2c1=O
  AID923: -1.4%; TSHR agonist: 12%; Resorufin fluor: i; A647 autofl: 1e-09; A488 fluor: i

molecule: Cc1nnc(SCC(=O)Nc2nccs2)s1
  AID923: 1.2%; TSHR agonist: -1%; Resorufin fluor: i; A647 autofl: 1e-09; A488 fluor: i

molecule: CCN=C1SC(C(N)=O)CC(=O)N1CC (stereo not given)
  AID923: 1.3%; TSHR agonist: 0%; Resorufin fluor: i; A647 autofl: 3.7e-08; A488 fluor: i

molecule: COc1ccc(N(C(=O)c2ccc(Br)o2)C2C=CS(=O)(=O)C2)cc1 (stereo not given)
  AID923: 5.1%; TSHR agonist: ·; Resorufin fluor: i; A647 autofl: 4.4e-09; A488 fluor: i

Not all compounds are listed; rates above refer to the full screens.
